Screening results deposited in PubChem by National Center for Advancing Translational Sciences (NCATS).
Rango release inh = inhibitors of RanGTP-induced Rango-importin beta complex dissociation; Biochemical FRET Rango-importin beta, RanGTP-induced dissociation; Potency, µM (top dose mostly 46.1 µM), for inactives: at the top dose activity change, negative = inhibition; hit rate 0.071% among 340,000; O95149+P62826; active means falling FRET ratio curve, often poorly fitted, with flat reads before Ran was added; inconclusive means other falling curves, or compound fluorescence or quenching; inactive means flat or rising ratio curve;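 also: potency is read from the fitted curve at half-maximal effect; % of control where 0% means no effect; nearly all actives have a fitted effect of over 45% in size; -100% = wells without RanGTP and RCC1; the record marks most hits as doubtful in a second field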
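Rango/importin beta premix (0.1/0.25 uM final), PBS + 1 mM DTT + 0.02% Tween-20 + 0.1% BSA; cpd 5 min RT; FRET pre-read; + RanGTP-RCC1 (0.6 uM Ran, 2 mM GTP, 0.2 uM RCC1); 45 min RT; FRET post-read, ex 430, em 486/530 nm.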
miR-21 FLuc = miR-21 reporter, rising signal; Potency, µM (titrated, usually from 38.3 µM), for the others: top-dose reporter change, positive = more light; 340,000 tested, under 10 active; AID 2288; HeLa miR-21 FLuc reporter, luciferase, 48 h; active = well fitted rising curve with a large enough effect; inconclusive = small, poorly fitted or top-dose-only effect; inactive = no such curve, though single readings can be large or run the other way;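 also: % of control where 0% means no effect; miR-21 action dims this reporter so a rising signal means less miR-21 action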
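HeLa miR-21-FLuc reporter line, endogenous miR-21; 2000 cells/well in DMEM/10% FBS; compound titration up to ~40uM final, 48 h, 37 degree Celsius; luciferase detection reagent, 15 min lysis, CCD luminescence.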
GLA inh pH 4.5 = blocks human alpha-galactosidase A at pH 4.5 | activity change, negative = inhibition, % at 105 µM | purified enzyme, 4-MU-alpha-Gal fluorescence, pH 4.5 | P06280 | 230,000 tested, under 10 active; inconclusive = small, poorly fitted or top-dose-only inhibition, or a rising curve; inactive = flat fitted curve, though single readings scatter; no compound was filed as active;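 also: 0% = full activity with enzyme and -100% = basal without enzyme; dose as in the result columns while the protocol names 77 µM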
Target sequence (P06280 whole entry, looked up): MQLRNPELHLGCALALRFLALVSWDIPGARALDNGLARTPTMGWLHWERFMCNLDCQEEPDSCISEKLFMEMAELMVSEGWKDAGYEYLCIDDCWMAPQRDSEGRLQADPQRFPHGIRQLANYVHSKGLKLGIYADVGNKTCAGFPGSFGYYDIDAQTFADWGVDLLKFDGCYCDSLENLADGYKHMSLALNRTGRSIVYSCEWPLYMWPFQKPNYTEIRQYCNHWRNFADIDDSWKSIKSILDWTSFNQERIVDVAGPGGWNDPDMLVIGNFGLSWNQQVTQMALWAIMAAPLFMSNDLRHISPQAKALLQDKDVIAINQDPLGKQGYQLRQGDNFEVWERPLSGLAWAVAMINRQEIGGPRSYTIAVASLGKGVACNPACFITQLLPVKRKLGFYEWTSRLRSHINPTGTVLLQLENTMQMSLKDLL
Rango complex inh = prevents formation of the Rango-importin beta complex; Q14974; hit rate 0.031% among 340,000; Rango CFP/YFP FRET sensor + importin beta, 45 min; Potency, µM (series often up to 92.2 µM), for the others: at the top dose inhibition of complex formation; active = rising FRET ratio curve, often small or poorly fitted; inconclusive = mostly compound fluorescence or quenching in the first reads; inactive = flat curves in all reads;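 also: potency is read from the fitted curve at half-maximal effect; 0% = DMSO wells and 100% = buffer wells lacking importin beta; nearly all actives have a fitted effect of over 15% in size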
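FRET biosensor Rango (snurportin 1 IBB between N-terminal EYFP and C-terminal Cerulean), 50 nM in PBS/1 mM DTT/0.02% Tween-20/0.1% BSA, preincubated 5 min RT with compound; 0.125 microM importin beta added, 45 min RT, CFP/YFP FRET ratio read.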
* = called active by the depositor.

How did COc1cccc(OCC(=O)NNC(=O)c2cccs2)c1 do in these assays?
Rango release inh: -15%; miR-21 FLuc: -5%; GLA inh pH 4.5: -1; Rango complex inh: 2.6%

Results for COc1ccc(-c2nc3cccc(C)n3c2NCc2ccco2)cc1OC ?
Rango release inh: 3%; miR-21 FLuc: -15%; GLA inh pH 4.5: 0; Rango complex inh: 1.3%

Results for Cc1cccc(C)c1OCC(=O)NCC1CCCO1 (stereo not given) ?
Rango release inh: -2%; miR-21 FLuc: -5%; GLA inh pH 4.5: -2; Rango complex inh: -1.1%

How did N#CC1=C(N)C(C#N)(C#N)[C@H](c2ccsc2)[C@H]2COCC=C12 do in these assays?
Rango release inh: inconclusive; miR-21 FLuc: -7%; GLA inh pH 4.5: 9; Rango complex inh: inconclusive

What do the screens show for `COc1ccc(NCc2nc3ccccc3n2CCOc2ccccc2)cc1`?
Rango release inh: 0%; miR-21 FLuc: -41%; GLA inh pH 4.5: 3; Rango complex inh: 7.0%

Results for O=C(O/N=C1/CCCc2occc21)c1ccccc1 ?
Rango release inh: -6%; miR-21 FLuc: -8%; GLA inh pH 4.5: 0; Rango complex inh: 3.5%

Results for CN1Cc2sc(NC(=S)NC(=O)c3ccccc3)c(C#N)c2CC1(C)C ?
Rango release inh: inconclusive; miR-21 FLuc: -7%; GLA inh pH 4.5: -4; Rango complex inh: inconclusive

What do the screens show for `CC(C)C[C@@H](CN)NC(=O)c1nc[nH]c1C(=O)N[C@@H](Cc1ccccc1)C(=O)CNC[C@H](C)NC(=O)c1nc[nH]c1C(=O)N[C@@H](C)C(=O)O`?
Rango release inh: 6%; Rango complex inh: -0.2%

Results for O=C(O)c1ccc(OS(=O)(=O)c2ccc(Cl)s2)cc1 ?
Rango release inh: 24%; Rango complex inh: 1.7%

How did Cn1c(CCNC(=O)c2cccs2)nnc1SCC(=O)Nc1nc(-c2ccccc2)cs1 do in these assays?
Rango release inh: -14%; miR-21 FLuc: -15%; GLA inh pH 4.5: -3; Rango complex inh: 1.1%

Results for Cc1noc(C)c1COC(=O)c1ccc(S(=O)(=O)N2CCCCC2)cc1 ?
Rango release inh: 10%; miR-21 FLuc: 0%; GLA inh pH 4.5: -11; Rango complex inh: 0.2%

What do the screens show for `COc1oc(C(=O)NC2CCCCC2)c(-c2ccc(Cl)cc2)c1S(=O)(=O)c1ccccc1`?
Rango release inh: -5%; Rango complex inh: 1.0%

What do the screens show for `CCn1nnnc1SCC(=O)Nc1nnc(C(C)C)s1`?
Rango release inh: -15%; miR-21 FLuc: -10%; GLA inh pH 4.5: 4; Rango complex inh: -2.4%

What do the screens show for `Cc1ccc(CNC(=O)Cn2cnc3cc([N+](=O)[O-])ccc3c2=O)cc1`?
Rango release inh: -2%; miR-21 FLuc: -1%; GLA inh pH 4.5: 4; Rango complex inh: 0.5%

Results for C[C@@]12CCC[C@@](C)(C(=O)O)C1CC[C@@]13C[C@@H](NCc4ccccc4)[C@@](C)(CCC12)C3 (stereo not given in full) ?
Rango release inh: 0%; Rango complex inh: -0.6%

How did CCN(CC(=O)Nc1ccc(NC(C)=O)cc1)C(=O)/C=C/c1cn(-c2ccccc2)nc1-c1cccs1 do in these assays?
Rango release inh: inconclusive; Rango complex inh: 2.2%

What do the screens show for `Cc1ccccc1NC(=S)N(Cc1ccccc1)Cc1cccs1`?
Rango release inh: -18%; miR-21 FLuc: -1%; GLA inh pH 4.5: 2; Rango complex inh: -1.4%

What do the screens show for `Cc1ccc(-c2csc(NC(=O)C3=NN(C4CCS(=O)(=O)C4)C(=O)CC3)n2)cc1` (stereo not given)?
Rango release inh: -1%; miR-21 FLuc: 0%; GLA inh pH 4.5: 4; Rango complex inh: 1.9%

How did NC(=O)c1ccc(N2CCNC(=O)C2)c([N+](=O)[O-])c1 do in these assays?
Rango release inh: 5%; miR-21 FLuc: -2%; Rango complex inh: -3.0%

Results for O=C(CCCn1c(SCc2cccc(F)c2)nc2ccccc2c1=O)NCC1CCCO1 (stereo not given) ?
Rango release inh: inconclusive; miR-21 FLuc: -1%; GLA inh pH 4.5: -1; Rango complex inh: 0.3%

How did CN(CC(=O)Nc1ccccc1Br)C(=O)C(Cc1ccccc1)NC(=O)c1ccccc1 (stereo not given) do in these assays?
Rango release inh: 2%; miR-21 FLuc: 8%; Rango complex inh: -0.6%

What do the screens show for `COc1ccccc1CNC(=O)c1cc(S(=O)(=O)N2CCN(c3ccccc3)CC2)ccc1Cl`?
Rango release inh: -15%; Rango complex inh: 0.2%

Results for CCOC(=O)[C@H]1[C@H]2COc3cc(OC)ccc3[C@@H]2N2C(=O)CN(Cc3ccc(Cl)cc3)C(=O)[C@@]12C ?
Rango release inh: 0%; Rango complex inh: -0.2%

What do the screens show for `O=C(Nc1ccc(Cl)cn1)C1CCCN(c2ncnc3c2nc2n3CCCCC2)C1` (stereo not given)?
Rango release inh: -12%; miR-21 FLuc: 1%; Rango complex inh: 6.9%

Results for CCOc1ccccc1C(=O)NN1C(=O)CCC1=O ?
Rango release inh: 1%; miR-21 FLuc: -6%; GLA inh pH 4.5: -4; Rango complex inh: -0.4%

How did O=S(=O)(N1CCCCC1)N1CCN(c2cc(Cl)ccc2Cl)CC1 do in these assays?
Rango release inh: -10%; miR-21 FLuc: -2%; GLA inh pH 4.5: 1; Rango complex inh: 0.4%

What do the screens show for `COc1ccc(CCN(C)C2CCCN(C(=O)CCC(F)(F)F)C2)cc1OC` (stereo not given)?
Rango release inh: -4%; miR-21 FLuc: 0%; Rango complex inh: -2.0%

Results for COC(=O)c1[nH]c2ccc(Cl)cc2c1NC(=O)CN1CCc2cc(OC)c(OC)cc2C1 ?
Rango release inh: 15%; miR-21 FLuc: -13%; GLA inh pH 4.5: -10; Rango complex inh: -0.3%

What do the screens show for `Cc1ccccc1-n1c(N)c(C(=O)Nc2ccc(F)cc2)sc1=S`?
Rango release inh: 20%; miR-21 FLuc: -15%; GLA inh pH 4.5: -5; Rango complex inh: 1.6%

Results for CC(=O)c1cccc(NC(=O)Cn2nc(-c3ccc(Cl)cc3)ccc2=O)c1 ?
Rango release inh: 8%; miR-21 FLuc: 1%; GLA inh pH 4.5: -7; Rango complex inh: -4.5%

Results for CCCNC(=O)c1n[nH]c(=O)c2ccccc12 ?
Rango release inh: -5%; miR-21 FLuc: -15%; GLA inh pH 4.5: 4; Rango complex inh: -0.3%

How did Cc1cccc(NC(=O)CSc2nnc(NC(=O)CN3CCOCC3)s2)c1 do in these assays?
Rango release inh: -5%; miR-21 FLuc: -1%; GLA inh pH 4.5: -9; Rango complex inh: 1.1%

Results for Cc1cc(NCCCn2ccnc2)n2ncc(-c3ccc(Cl)cc3)c2n1 ?
Rango release inh: 0%; miR-21 FLuc: -3%; GLA inh pH 4.5: -18; Rango complex inh: 6.0%

How did COC(=O)Nc1nnc(-c2ccncc2)s1 do in these assays?
Rango release inh: -3%; miR-21 FLuc: -9%; GLA inh pH 4.5: 12; Rango complex inh: 2.4%

How did CCCCc1ccc(/C=C2\C(=O)c3ccccc3C(O)=C2C(=O)OCC)cc1 do in these assays?
miR-21 FLuc: 15%; GLA inh pH 4.5: 5

What do the screens show for `CC(C)NCc1c(O)c(Br)cc2oc3c(c12)CCCC3`?
Rango release inh: 0%; miR-21 FLuc: -5%; GLA inh pH 4.5: -4; Rango complex inh: 3.2%

What do the screens show for `O=c1cc(-c2ccccc2)nc(Cc2c(Cl)cccc2Cl)[nH]1`?
Rango release inh: 25%; miR-21 FLuc: -2%; Rango complex inh: -2.2%

What do the screens show for `COc1cccc(NC(=O)CSc2nnc3c(n2)[nH]c2ccc(C)cc23)c1`?
Rango release inh: -12%; miR-21 FLuc: 1%; Rango complex inh: -2.0%

What do the screens show for `CCOC(=O)CN1C(=O)N[C@@H](CCc2ccccc2)[C@H](C(=O)OC)[C@H]1C`?
Rango release inh: inconclusive; GLA inh pH 4.5: -14; Rango complex inh: 4.4%

Results for CCC(C)NC(=O)Cn1nc([N+](=O)[O-])c(Cl)c1C (stereo not given) ?
Rango release inh: 2%; miR-21 FLuc: -2%; GLA inh pH 4.5: 6; Rango complex inh: -0.6%

Five compounds drawn at random from those above:
How did CCN(CC(=O)Nc1ccc(NC(C)=O)cc1)C(=O)/C=C/c1cn(-c2ccccc2)nc1-c1cccs1 do in these assays?
Rango release inh: inconclusive; Rango complex inh: 2.2%

Results for COc1ccc(-c2nc3cccc(C)n3c2NCc2ccco2)cc1OC ?
Rango release inh: 3%; miR-21 FLuc: -15%; GLA inh pH 4.5: 0; Rango complex inh: 1.3%

What do the screens show for `Cc1ccccc1NC(=S)N(Cc1ccccc1)Cc1cccs1`?
Rango release inh: -18%; miR-21 FLuc: -1%; GLA inh pH 4.5: 2; Rango complex inh: -1.4%

What do the screens show for `COc1cccc(NC(=O)CSc2nnc3c(n2)[nH]c2ccc(C)cc23)c1`?
Rango release inh: -12%; miR-21 FLuc: 1%; Rango complex inh: -2.0%

Results for O=C(O)c1ccc(OS(=O)(=O)c2ccc(Cl)s2)cc1 ?
Rango release inh: 24%; Rango complex inh: 1.7%

Further records follow:
How did CCOc1ccc(NC(=O)COc2ccc(-n3cnnn3)cc2)cc1 do in these assays?
Rango release inh: -17%; Rango complex inh: 1.7%

Results for CSc1nc(C)cc(C)c1C#N ?
Rango release inh: -1%; miR-21 FLuc: -4%; GLA inh pH 4.5: 11; Rango complex inh: 0.4%

What do the screens show for `CC(=O)Nc1ccc2c(c1)nc1n2CCN(C(C)c2ccccc2)C1` (stereo not given)?
Rango release inh: -11%; miR-21 FLuc: -22%; GLA inh pH 4.5: 15; Rango complex inh: inconclusive

How did CCOC(=O)[C@@H]1[C@H]2COc3cc(OC)ccc3[C@H]2N2C(=O)N(c3cccc(F)c3)C(=O)[C@@]12C do in these assays?
Rango release inh: 6%; Rango complex inh: 2.5%

Results for CC(SCC(=O)Nc1ccccc1Br)c1nc2ccccc2c(=O)[nH]1 (stereo not given) ?
Rango release inh: 13%; Rango complex inh: 0.4%

What do the screens show for `Cc1ccc(C)c(NC(=S)N2CCN(S(C)(=O)=O)CC2)c1`?
Rango release inh: -7%; miR-21 FLuc: 0%; Rango complex inh: -2.7%

How did CCOc1ccc(CNC(=O)CCCn2ccc3cc(S(=O)(=O)N4CCCC4)ccc32)cc1 do in these assays?
Rango release inh: inconclusive; miR-21 FLuc: 21%; Rango complex inh: 6.1%

How did C=CCOc1nc2c(c(=O)n(Cc3ccc(Cl)c(Cl)c3)c(=O)n2C)n1C do in these assays?
Rango release inh: -11%; Rango complex inh: -0.2%

Results for Cc1ccc(/C=C/C(=O)Nc2cccc(S(=O)(=O)N3CCOCC3)c2)o1 ?
Rango release inh: -4%; miR-21 FLuc: -7%; GLA inh pH 4.5: 3; Rango complex inh: -3.6%

How did O=C(Nc1cccc(-c2nc3cccnc3s2)c1)c1ccco1 do in these assays?
Rango release inh: 0%; miR-21 FLuc: -13%; GLA inh pH 4.5: -12; Rango complex inh: 2.3%

What do the screens show for `CCOC(=O)Cc1csc(NC(=O)CC(C)(C)CC(=O)O)n1`?
Rango release inh: -1%; miR-21 FLuc: 0%; GLA inh pH 4.5: -6; Rango complex inh: 4.9%

How did CCc1ccccc1NC(=O)Nc1cc(F)ccc1F do in these assays?
Rango release inh: -22%; miR-21 FLuc: 8%; GLA inh pH 4.5: 8; Rango complex inh: 0.2%

How did CCC(C)c1ccccc1NC(=O)C1CCCO1 (stereo not given) do in these assays?
Rango release inh: 3%; miR-21 FLuc: -9%; GLA inh pH 4.5: 5; Rango complex inh: -4.2%

How did Cc1ccc(C(=O)NCC#N)cc1 do in these assays?
Rango release inh: 19%; miR-21 FLuc: 0%; GLA inh pH 4.5: 6; Rango complex inh: -0.3%

What do the screens show for `Cc1ccc(NS(=O)(=O)c2cc(C(=O)NCc3ccccn3)ccc2Cl)cc1C`?
Rango release inh: -10%; miR-21 FLuc: -15%; GLA inh pH 4.5: -12; Rango complex inh: 2.7%

Not all compounds are listed (hit frequency here may not be typical).
